Env fusion inh: inhibitors of HIV Env-mediated cell fusion; HeLa-JRFL Env/CEM21 cell fusion, luciferase; AID 651610; 360,000 compounds, 1.1% hits; inhibition, % at 12.3 µM;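 active = mean replicate inhibition score of at least 50 and every replicate individually at or above 50; inconclusive = only one of the two criteria met; inactive = mean below 50 and not all replicates reaching 50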;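 note: 0% = plate neutral controls and 100% = maraviroc near 300 nM; one replicate is shown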
CSC inhib: blocks cancer stem cells | cancer stem cell-like cells viability, luminescence | inhibition, % at 7.5 µM | 300,000 compounds, 1.1% hits | AID 2717;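 active = mean at 75% or more and at least half the replicates too; inconclusive = mean and replicates disagree; tested in HMLE shEcad cells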;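 note: 0% = median of negative and 100% = median of positive control wells; the first replicate is given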
eIF4H FP inh: inhibitors of RNA binding by human eIF4H; 290,000 compounds, 0.94% hits; AID 2012; eIF4H fluorescence polarization binding assay; inhibition, % at 35 µM; Q15056;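 active = 50% or more with normal probe brightness, or confirmed in later tests; inconclusive = above 50% with abnormal brightness, or retests that disagree; inactive = below 50% or failed in later tests; about a fifth of its hits are not listed in these tables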;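 note: calls also rest on retests at 20 µM and on dose response follow-up; 0% = protein and probe with vehicle and 100% = probe without protein; strong numbers were not always called active; many hits fall short of the cut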
Yeast UUG start: yeast start codon fidelity modulation; S. cerevisiae UUG-firefly luciferase reporter, luminescence/redox ratio; activity score, % at 18.7 µM; 350,000 compounds, 0.13% hits;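 active = replicate mean at a twofold rise or more, about +100% in these data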;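 note: firefly luciferase made from a UUG start codon reports start codon fidelity; reporter light over untreated wells divided by growth signal over untreated wells; some hits fall short of that in this replicate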
MT1-MMP act inh: blocks activation of human MT1-MMP | P50281 | HT1080 RFP-PRO-GFP cells, GFP/RFP ratio fluorescence, overnight; percent of plate control window, DMSO zero | GFP/RFP ratio change, % at 20 µM | 360,000 compounds, 0.061% hits;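 active = GFP/RFP ratio change of at least 30% with cell ATP level not reduced by more than half and red fluorescence within 50% of control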; note: strong numbers were not always called active
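Compound: 20 µM single dose, 1% DMSO / System: HT1080 RFP-PRO-GFP cells / Controls: DMSO and RFP-L50D-GFP cell wells / Read-out basis: GFP/RFP fluorescence ratio / Schedule: overnight compound exposure at 37 °C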
PABP FP inh: blocks human PABP binding to poly(A) RNA | P11940 | fluorescence polarization | inhibition, % at 35 µM | 290,000 compounds, 1% hits;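 active = 50% or more with normal probe brightness, or confirmed in later tests; inconclusive = above 50% with abnormal brightness, or retests that disagree; inactive = below 50% or failed in later tests; about a fifth of its hits are not listed in these tables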;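 note: calls also rest on retests at 20 µM and on dose response follow-up; controls were probe without protein and protein plus probe with vehicle; some compounds called inactive have numbers as strong as hits; many hits fall short of the cut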
Target sequence (P11940 whole entry, looked up): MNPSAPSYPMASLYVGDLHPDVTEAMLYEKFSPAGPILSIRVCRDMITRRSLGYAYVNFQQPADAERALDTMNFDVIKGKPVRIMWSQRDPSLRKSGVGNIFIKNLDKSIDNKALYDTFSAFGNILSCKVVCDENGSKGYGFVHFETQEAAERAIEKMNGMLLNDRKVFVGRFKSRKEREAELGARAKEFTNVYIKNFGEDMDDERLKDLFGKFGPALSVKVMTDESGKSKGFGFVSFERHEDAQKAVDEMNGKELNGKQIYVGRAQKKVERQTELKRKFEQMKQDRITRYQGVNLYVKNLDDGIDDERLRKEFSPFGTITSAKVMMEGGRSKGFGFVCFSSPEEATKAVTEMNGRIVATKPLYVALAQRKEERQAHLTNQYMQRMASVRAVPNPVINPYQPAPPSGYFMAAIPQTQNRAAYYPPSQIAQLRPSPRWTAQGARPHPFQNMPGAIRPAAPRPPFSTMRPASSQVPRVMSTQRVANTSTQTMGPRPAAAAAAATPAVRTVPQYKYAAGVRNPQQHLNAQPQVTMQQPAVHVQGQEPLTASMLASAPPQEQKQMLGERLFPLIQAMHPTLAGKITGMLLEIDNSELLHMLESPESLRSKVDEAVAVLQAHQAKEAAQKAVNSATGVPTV
Rce1 inhib: inhibitors of yeast Ras-converting enzyme; yeast membranes, quenched prenylated peptide cleavage fluorescence; calls only; 290,000 compounds, 0.27% hits;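 active = fall in fluorescence gain of 50% or more versus controls, with final raw signal at or below 3038400; inconclusive = same 50% fall but final raw signal above 3038400; inactive = fall in fluorescence gain under 50%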;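 note: plate controls were neutral control wells for no effect and wells lacking membranes for full effect; tested at 10 µM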
MT1-MMP act inh RFP: also measured in MT1-MMP act inh; calls as there; RFP signal change, %; measured here: RFP expression control read;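 0 = vehicle wells; hits needed this value within 50% of zero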
Numbers without * were called inactive.

Cc1ccc(S(=O)(=O)N2CCN(C(=O)c3ccc(N4CCC(C)CC4)c([N+](=O)[O-])c3)CC2)cc1 was read as Env fusion inh -9, Yeast UUG start 0, MT1-MMP act inh 2 and MT1-MMP act inh RFP -6.
`O=[N+]([O-])c1ccn(-c2nc(-c3ccccc3)cc(C(F)(F)F)n2)n1` gave Env fusion inh 7, CSC inhib 3, eIF4H FP inh -7, Yeast UUG start -8, MT1-MMP act inh 1, PABP FP inh 0, Rce1 inhib inactive and MT1-MMP act inh RFP 3.
COc1ccc(OC)c(Nc2nc(NCCO)c3ccccc3n2)c1 was read as Env fusion inh -115, CSC inhib -2, eIF4H FP inh -3, Yeast UUG start -6, MT1-MMP act inh 5, PABP FP inh -10, Rce1 inhib inactive and MT1-MMP act inh RFP -4.
Screening CCOC(=O)c1nn(-c2ccccc2)c(=O)c2c(N)scc12 returned Env fusion inh -14, CSC inhib 21, eIF4H FP inh -7, Yeast UUG start -10, MT1-MMP act inh 13, PABP FP inh 35 and MT1-MMP act inh RFP 3.
Screening Cc1cc(C(F)F)n2nc(C(=O)Nc3ccc(S(=O)(=O)N4CCCC4)cc3)nc2n1 returned CSC inhib -6, eIF4H FP inh 11, Yeast UUG start -23, MT1-MMP act inh 0, PABP FP inh 3, Rce1 inhib inactive and MT1-MMP act inh RFP 0.
CCOCc1cc(CN2CCC(n3nccc3NC(=O)C3CC3)CC2)ccc1OC was read as Env fusion inh 2, eIF4H FP inh 4, Yeast UUG start -17, MT1-MMP act inh -2, PABP FP inh -3, Rce1 inhib inactive and MT1-MMP act inh RFP 2.
COc1ccc(C2C(C(=O)Nc3cccnc3)=C(C)Nc3nc(-c4cccs4)nn32)cc1OC (centres undefined) was read as Env fusion inh -1, CSC inhib -3, eIF4H FP inh -4, Yeast UUG start -13, MT1-MMP act inh 0, PABP FP inh 7, Rce1 inhib inactive and MT1-MMP act inh RFP 2.
For CCN(CC)C(=O)CSc1nc2c(sc(=S)n2-c2ccccc2)c(=O)[nH]1 the results were Env fusion inh -5, CSC inhib -10, eIF4H FP inh -1, MT1-MMP act inh 1, PABP FP inh -6, Rce1 inhib inactive and MT1-MMP act inh RFP 0.
`O=C(/C=C/c1ccc(F)cc1)NCCC1=CCCCC1` gave Env fusion inh -52, CSC inhib -12, eIF4H FP inh -6, Yeast UUG start -3, MT1-MMP act inh 7, PABP FP inh -12, Rce1 inhib inactive and MT1-MMP act inh RFP -2.
`CSCCC(NC(=O)c1ccc(Cl)cc1)C(=O)OCC(=O)NCc1ccco1` (centres undefined) gave Env fusion inh 1, CSC inhib -8, Yeast UUG start -7, MT1-MMP act inh -2, Rce1 inhib inactive and MT1-MMP act inh RFP -4.
COc1ccc(N2CC(C(=O)Nc3cccnc3)CC2=O)cc1 (centres undefined) was read as Env fusion inh 2, CSC inhib -14, eIF4H FP inh -9, Yeast UUG start -13, MT1-MMP act inh 1, PABP FP inh 5, Rce1 inhib inactive and MT1-MMP act inh RFP 3.
`C=CCn1c(SCC(=O)N(C)CC(=O)Nc2ccc(C)cc2)nnc1-c1ccncc1` gave Env fusion inh -19, Yeast UUG start -12, MT1-MMP act inh -3 and MT1-MMP act inh RFP 0.

The final 2 records of the part before open the next one.
COc1ccc(N2CC(C(=O)Nc3cccnc3)CC2=O)cc1 (centres undefined) was read as Env fusion inh 2, CSC inhib -14, eIF4H FP inh -9, Yeast UUG start -13, MT1-MMP act inh 1, PABP FP inh 5, Rce1 inhib inactive and MT1-MMP act inh RFP 3.
`C=CCn1c(SCC(=O)N(C)CC(=O)Nc2ccc(C)cc2)nnc1-c1ccncc1` gave Env fusion inh -19, Yeast UUG start -12, MT1-MMP act inh -3 and MT1-MMP act inh RFP 0.
`CN(CCO)S(=O)(=O)c1ccc2c(c1)C(=NNC(N)=O)c1cc(S(=O)(=O)N(C)CCO)ccc1-2` gave Env fusion inh 12, CSC inhib -15, eIF4H FP inh -3, Yeast UUG start -6, MT1-MMP act inh -2, PABP FP inh -17, Rce1 inhib inactive and MT1-MMP act inh RFP -2.
For S=C(Nc1ccccc1)N1CCCCCC1 the results were Env fusion inh -68, CSC inhib -6, eIF4H FP inh 2, Yeast UUG start -30, MT1-MMP act inh 5, PABP FP inh -8, Rce1 inhib inactive and MT1-MMP act inh RFP 1.
`O=C(Nc1ccccc1)C1CCCN(C(=O)c2ccc(Cl)cc2)C1` (centres undefined) gave Env fusion inh -14, CSC inhib -7, eIF4H FP inh -7, MT1-MMP act inh 3, PABP FP inh 2, Rce1 inhib inactive and MT1-MMP act inh RFP -7.
`Cc1c(C(=O)Nc2cccc([N+](=O)[O-])c2)cnn1-c1ccccc1` gave Env fusion inh -88, CSC inhib 6, eIF4H FP inh -6, Yeast UUG start -16, MT1-MMP act inh 3, PABP FP inh -2, Rce1 inhib inactive and MT1-MMP act inh RFP -4.
For CC1CCN(C(=O)Cn2c(=O)n(-c3ccc(F)cc3)c(=O)c3sccc32)CC1 the results were Env fusion inh 12, CSC inhib -6, eIF4H FP inh 0, Yeast UUG start -14, MT1-MMP act inh -1, PABP FP inh -8, Rce1 inhib inactive and MT1-MMP act inh RFP 5.
COC(=O)c1ccc(C)c(NC(=O)c2c(-c3ccccc3)noc2C)c1 was read as CSC inhib -6, eIF4H FP inh -6, Yeast UUG start -11, MT1-MMP act inh -1, PABP FP inh -8, Rce1 inhib inactive and MT1-MMP act inh RFP -3.
Screening C/C(C=O)=C/c1ccccc1 returned CSC inhib -12, Yeast UUG start -16, MT1-MMP act inh 1 and MT1-MMP act inh RFP -1.
Screening COc1ccc(NC(=O)c2cc(C3CC3)on2)c(OC)c1 returned Env fusion inh -73, CSC inhib -1, eIF4H FP inh -12, Yeast UUG start -9, MT1-MMP act inh -2, PABP FP inh -2, Rce1 inhib inactive and MT1-MMP act inh RFP 5.
Screening c1coc(CNc2nc3sc4c(c3c3ncnn23)CCCC4)c1 returned CSC inhib -14, eIF4H FP inh -7, Yeast UUG start -11, MT1-MMP act inh 6, PABP FP inh 0, Rce1 inhib inactive and MT1-MMP act inh RFP 4.
For COc1cc2c(cc1NC(=O)COc1ccc3ccccc3c1)oc1ccccc12 the results were Env fusion inh 13, CSC inhib 12, eIF4H FP inh -5, Yeast UUG start -11, MT1-MMP act inh 2, PABP FP inh -5, Rce1 inhib inactive and MT1-MMP act inh RFP 6.
For CCN(CC(=O)NCc1cccs1)C(=O)c1cccc(S(=O)(=O)Nc2ccccc2Cl)c1 the results were Env fusion inh 19, CSC inhib -1, MT1-MMP act inh -5, Rce1 inhib inactive and MT1-MMP act inh RFP -1.
`COc1ccc(N2CCN(C(=O)c3ccc(Cl)c(S(=O)(=O)N4CCCC4)c3)CC2)cc1` gave Env fusion inh 14, CSC inhib -17, eIF4H FP inh 4, MT1-MMP act inh 2, PABP FP inh 15, Rce1 inhib inactive and MT1-MMP act inh RFP -9.
CC(=O)c1cccc(S(=O)(=O)NCC(C)(C)N2CCOCC2)c1 was read as Env fusion inh -7, CSC inhib -1, eIF4H FP inh -1, Yeast UUG start -1, MT1-MMP act inh 4, PABP FP inh -7, Rce1 inhib inactive and MT1-MMP act inh RFP 6.
COc1ccc(Cl)cc1Nc1nc(-c2sc(NC(=O)CC(C)C)nc2C)cs1 was read as Env fusion inh -16, CSC inhib 6, eIF4H FP inh -13, Yeast UUG start -14, MT1-MMP act inh 6, PABP FP inh -14, Rce1 inhib inactive and MT1-MMP act inh RFP 2.
O=C(O)CCS(=O)(=O)c1ccc(-c2ccccc2)cc1 was read as Env fusion inh -9, CSC inhib 1, eIF4H FP inh -4, MT1-MMP act inh -3, PABP FP inh inconclusive, Rce1 inhib inactive and MT1-MMP act inh RFP 1.
For CC(C)(C)c1ccc(C(=O)Nc2ccccc2Cl)cc1 the results were Env fusion inh -117, CSC inhib 4, eIF4H FP inh -7, MT1-MMP act inh 0, PABP FP inh inconclusive, Rce1 inhib inactive and MT1-MMP act inh RFP -5.
COc1ccc(N2C(=O)c3ccc(C(=O)Nc4ccc(NC(C)=O)cc4)cc3C2=O)cc1 was read as Env fusion inh 9, CSC inhib -2, eIF4H FP inh -5, Yeast UUG start -15, MT1-MMP act inh 2, PABP FP inh -4, Rce1 inhib inactive and MT1-MMP act inh RFP 6.
Cc1nonc1OC(C)CNc1ccc([N+](=O)[O-])cc1 (centres undefined) was read as Env fusion inh inactive, CSC inhib 4, eIF4H FP inh -7, Yeast UUG start -16, MT1-MMP act inh 7, PABP FP inh -6, Rce1 inhib inactive and MT1-MMP act inh RFP 1.
For CCCc1cc2c(cc1NC(=O)c1ccc(Br)cc1)OCO2 the results were CSC inhib 6, eIF4H FP inh 3, Yeast UUG start -19, MT1-MMP act inh -2, PABP FP inh 2, Rce1 inhib inactive and MT1-MMP act inh RFP 0.
`CC(C)(CCl)C(=O)Nc1ccc(OC(F)(F)F)cc1` gave Env fusion inh -5, CSC inhib -17, eIF4H FP inh 7, MT1-MMP act inh 4, PABP FP inh -4, Rce1 inhib inactive and MT1-MMP act inh RFP 6.
COCCN1C(=O)CCC1(C)C(=O)Nc1c(C)cccc1C (centres undefined) was read as Env fusion inh 3, Yeast UUG start -21, MT1-MMP act inh 5 and MT1-MMP act inh RFP 3.
`CCCn1c(=N)n(CC(=O)c2ccc(OCC(=O)OC)cc2)c2ccccc21` gave Env fusion inh 13, CSC inhib -6, Yeast UUG start -10, MT1-MMP act inh 5, Rce1 inhib inactive and MT1-MMP act inh RFP -3.

Quoted at random: 3 records from the list
For CC(C)(C)c1ccc(C(=O)Nc2ccccc2Cl)cc1 the results were Env fusion inh -117, CSC inhib 4, eIF4H FP inh -7, MT1-MMP act inh 0, PABP FP inh inconclusive, Rce1 inhib inactive and MT1-MMP act inh RFP -5.
Cc1nonc1OC(C)CNc1ccc([N+](=O)[O-])cc1 (centres undefined) was read as Env fusion inh inactive, CSC inhib 4, eIF4H FP inh -7, Yeast UUG start -16, MT1-MMP act inh 7, PABP FP inh -6, Rce1 inhib inactive and MT1-MMP act inh RFP 1.
COc1ccc(N2C(=O)c3ccc(C(=O)Nc4ccc(NC(C)=O)cc4)cc3C2=O)cc1 was read as Env fusion inh 9, CSC inhib -2, eIF4H FP inh -5, Yeast UUG start -15, MT1-MMP act inh 2, PABP FP inh -4, Rce1 inhib inactive and MT1-MMP act inh RFP 6.

Assay outcomes from PubChem BioAssay.
